Assay outcomes: PubChem BioAssay, ICCB-Longwood Screening Facility, Harvard Medical School
fixLJ activator: activators of Burkholderia fixLJ two-component system, primary screen, B. multivorans, GFP reporter | B. multivorans fixK-promoter GFP reporter, 18 h; hits give high values | actives 0.3% (n = 29,000) | AID 1918990, 2023 | z-score (test concentration not listed);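 active = replicate mean overnight rise in green fluorescent reporter signal, 3 or more SD over negative controls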;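 also: score is relative to vehicle wells of the plate; 300 nL library stock went into each well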
Starred values were filed as active, the others as inactive; & = joins results of further samples. Some of the compounds tested (hit frequency here may not be typical).

SMILES	fixLJ activator
CCN1CC(C(=O)N2CCC(Oc3ccncc3)CC2)CCC1=O (stereo not drawn)	-1.4
C#CC1(O)CCC2C3CCC4=CC(=O)CCC4(C)C3CCC21C (stereo not drawn)	-2.3
CCOc1ccc(NC(=O)c2oc3ccccc3c2NC(=O)c2cc(C)cc(C)c2)cc1	-0.51
COc1ccc2nc(CNC(=O)NCC3CCS(=O)(=O)C3)[nH]c2c1 (stereo not drawn)	-0.44
COc1ccc(Br)cc1C(=O)Nc1nc2ccc(F)cc2s1	-1.2
CCCOc1ccc(CNC(=O)C(C)n2nc(C)n3c(cc4occc43)c2=O)cc1 (stereo not drawn)	-1
CCn1cc(C(=O)NCCCN(CC(C)C)CC(C)C)c(=O)c2cc(S(=O)(=O)N3CCc4ccccc4C3)ccc21	-0.6
Cc1cc(OC(C)C(=O)N(Cc2ccco2)Cc2ccccc2F)cc(C)c1Cl (stereo not drawn)	1
c1cnnc(N2CCC(c3nnc(Cn4cccn4)n3C3CC3)CC2)c1	-0.57
CCc1cc(N2CCC(NC3CCC(N)C3)CC2)nc(N2CCCC2)n1 (stereo not drawn)	0.69
OC1C(O)C(O)C(O)C(O)C1O (stereo not drawn)	-1.3
COc1ccc(NC(=O)COc2ccc(S(=O)(=O)NC3CCCCC3)cc2)cc1OC	-1.6
COc1ccc(NC(=O)CSc2nc3ccccc3nc2N2CCC(C)CC2)cc1	0.26
Cc1nc(SCCNC(=O)CCC(=O)Nc2cccc(F)c2)n[nH]1	0.02
Cc1ccc2c(c1)-c1c(cnc3cc(-c4ccc(Cl)cc4)nn13)CO2	0.21
CCc1ccc(C(=O)c2cn(CC(=O)Nc3cc(OC)cc(OC)c3)c3ccc(CC)cc3c2=O)cc1	0.82
COc1ccc(C(=O)N2CCN(C(=O)COc3ccc(Br)cc3)CC2)cc1OC	-1.1
CCCCSc1nnc2c(n1)OC(c1ccc(Br)s1)Nc1ccccc1-2 (stereo not drawn)	-2.6
CC1=C(C(=O)OC2CCCCCC2)C(c2c(F)cccc2Cl)CC(=O)N1 (stereo not drawn)	-0.92
Cc1ccc(O)c(NC(=O)c2noc3c2CCCC3)c1	-1.7
Cc1noc(C)c1CC(=O)Nc1ccc2nc(C(C)O)[nH]c2c1 (stereo not drawn)	-0.92
COc1cc(OC)c(NC(=O)c2nn(-c3ccc(C)cc3)c(=O)c3c2c2ccccc2n3C)cc1Cl	-0.52
COc1ccc(NC(=O)Cn2c(=O)n(CCCC(=O)NCc3ccccc3Cl)c(=O)c3ccccc32)c(OC)c1	0.09
COc1ccc(-c2cc(C(=O)Nc3cc(C(F)(F)F)ccc3Cl)no2)cc1	-0.41
CC1(C#N)CCCN(C(=O)c2cccc(-c3ccc(O)cc3)c2)C1 (stereo not drawn)	1

Continuation.
SMILES	fixLJ activator
COCC(=O)N1CCCC(c2nnc(CN3CCCCC3)n2C)C1 (stereo not drawn)	-0.45
CCN(CCCNC(=O)c1nn(-c2ccc(OC)cc2)c(=O)c2c1c1ccccc1n2C)c1ccccc1	-0.07
O=C(NCc1ccc(Cl)cc1)c1cc2c(s1)-c1ccccc1SC2	-0.88
COc1ccc(Nc2ncc(C(=O)Nc3cc(C)ccc3OC)c3ccccc23)cc1	0.05
CC[C@@]1(O)C(=O)OCc2c1cc1n(c2=O)Cc2cc3c(O)cccc3nc2-1	0.6
Cc1cc(C)c2nonc2c1S(=O)(=O)NC1CCNC1=O (stereo not drawn)	0.25
CCOC(=O)N1CCC(NC(=O)c2ccc3c(c2)N(Cc2ccc(Cl)cc2)C(=O)c2ccccc2S3=O)CC1 (stereo not drawn)	-0.59
CC(=O)c1cccc(NC(=O)c2noc3c2CCCC3)c1	2.2
CCC(NC(=O)NCc1ccc(CN)cc1)c1ncc(C)[nH]1 (stereo not drawn)	-0.44
Cc1ccc(C)c(CN2C(=O)c3ccccc3S(=O)c3ccc(C(=O)N4CCCCC4)cc32)c1 (stereo not drawn)	-0.93
CN(C)S(=O)(=O)N1CC[C@@](O)(c2ccccc2)[C@H]2CCCC[C@@H]21	-1.1
Cn1c(NCc2cccc(Cl)c2)nc2ccccc21	-1.2
CCC(=O)N1CCc2cc(S(=O)(=O)NCCC(=O)Nc3ccc(N(CC)CC)cc3C)ccc21	-1.8
CCN1CCN(c2cc(C)c3cc(NC(=O)c4ccccc4F)ccc3n2)CC1	-0.07
CCc1ccc(Nc2nc3ccccc3nc2NS(=O)(=O)c2ccccc2)cc1	-0.25
CCOc1ccc(CCNC(=O)c2ccc3c(Cl)c4c(nc3c2)CCCC4)cc1	-1.3
CN(C)C1C(NC(=O)C2CCN(C(=O)c3ccncc3)CC2)C2CCOC21 (stereo not drawn)	-1.6
Cc1nc2c(c(C)c1CCC(=O)NCc1ccccc1)c(=O)n(C)c(=O)n2C	-0.99
O=C(c1ccc(CSc2nc3ccncc3n2Cc2cccc(F)c2)cc1)N1CCCCCC1	-2.7
CS(=O)(=O)c1ccc(C(=O)N2CCN(c3ccc(Cl)cn3)CC2)cc1	-0.06
CCOc1ccc(C(=O)Nc2ccc3oc(-c4ccc(C)cc4C)nc3c2)cc1Br	0.16
COc1ccc(NC(=O)CC2Nc3ccccc3NC2=O)cc1 (stereo not drawn)	-0.26
CCc1ccc(OCCCn2c(-c3ccc(Cl)cc3)nc3ccccc3c2=O)cc1	-2.1
COc1cc2nc(NCC(C)c3ccccc3)n3nc(-c4ccccc4)nc3c2cc1OC (stereo not drawn)	-0.67
Cc1cc(Cl)ccc1OCc1cc(=O)n2c3c(sc2n1)CCCC3	-1.2

The list continues:
SMILES	fixLJ activator
CCCc1nc(C)cc(-c2ccc(C(=O)NCc3cnn(C)c3C)cc2)n1	-1.2
Cc1cccn2c(=O)c3cc(C(=O)NCC(C)C)sc3nc12	-0.38
O=C(Cn1c(=O)n(-c2ccccc2)c(=O)c2c3c(sc21)CCC3)c1ccc(Br)cc1	0.28
COc1cccc2c1OCCCN(C(=O)C=Cc1cc(CO)cs1)C2	0.54
CCOc1ccc(NC(=O)Cn2cc(C(=O)c3ccc(F)cc3)c(=O)c3cc4c(cc32)OCO4)cc1	0.7
Cc1cccc(CSc2nc3c(sc4ccccc43)c(=O)n2CCC(=O)NC(C)C)c1	-0.48
OC(c1ccccc1)c1nc2ccccc2n1Cc1c(F)cccc1Cl (stereo not drawn)	-1.2
CCCCCCCCCCC[C@@H](C[C@H]1OC(=O)[C@H]1CCCCCC)OC(=O)[C@@H](CC(C)C)NC=O	-1.8
CC(NC(=O)c1ccc(F)cc1)c1nc2ccccc2[nH]1 (stereo not drawn)	-0.72
Cc1ccc2oc(=O)c(S(=O)(=O)c3ccc(F)cc3)cc2c1	0
O=C(Nc1cccc2c1CCCC2)N1Cc2cnn(CCO)c2C1	-0.37
CCCc1nnc(NC(=O)c2cc(=O)c3ccccc3o2)s1	-0.57
Cc1noc(C)c1S(=O)(=O)N(CC(=O)NCCc1ccc(Cl)cc1)c1ccc(C(C)C)cc1	-1.3
COc1ccc(-n2c(CC3C(=O)N(C)c4ccc(C)cc43)nc3ccccc3c2=O)cc1 (stereo not drawn)	0.4
CN1CCc2[nH]cnc2C12CCN(C(=O)c1ccc3nccnc3c1)CC2	-0.25
CCOC(=O)C1=C(CN2CCN(c3ccccc3OC)CC2)NC(=O)NC1c1ccccc1 (stereo not drawn)	-1.3
Cc1cccc(Nc2ccccc2C(=O)O)c1C	-1.4&-1.7
CN1CC(=O)N(CC(=O)NCc2cc(COc3ccccc3)cs2)C1=O	-0.58
CCOC(=O)c1cnc2ccc(OC)cc2c1NCCc1ccc(OC)c(OC)c1	-1.9
CS(=O)(=O)N1CCc2[nH]cnc2C12CCN(C(=O)C1CC1)CC2	-0.39
CCCCN(Cc1ccco1)C(=O)NC(C)c1nc(C)no1 (stereo not drawn)	-2.2
COCCn1ccnc1C1CCCN(C(=O)CCCn2ccnc2)C1 (stereo not drawn)	-2.6
COc1ccc(NC(=O)Cn2c(=O)n(CCCC(=O)NCCc3ccc(C)cc3)c(=O)c3ccccc32)cc1Cl	-0.7
Cc1ccc2c(c1)OC(C)(C)CC2NC(=O)c1cc(C)n2nc(C)cc2n1 (stereo not drawn)	-0.38
NC[C@H]1O[C@H](O[C@H]2[C@H](O)[C@@H](O[C@H]3O[C@H](CO)[C@@H](O)[C@H](N)[C@H]3O)[C@H](N)C[C@@H]2N)[C@H](N)[C@@H](O)[C@@H]1O	-2.6

More records follow:
SMILES	fixLJ activator
CCOC(=O)c1c(NC(C)=O)c2c3c(sc2n1Cc1nc(-c2ccccc2OCC)oc1C)CCCC3	-0.13
Cc1ccc(OCC(=O)Nc2ccc(-c3nc4ccc(C)cc4o3)cc2)cc1	-2.3
CN1CCN(C(=O)Cn2ncc3c4ccccc4n(Cc4ccc(Cl)cc4)c3c2=O)CC1	1.2
CC1=NOC(C(=O)N2CCC(c3cc(Cc4ccccc4)[nH]n3)CC2)C1 (stereo not drawn)	-1.2
COc1ccccc1C1CN(C(=O)C2CCCC2)CC1C(=O)O (stereo not drawn)	0.29
COc1ccc2c(C)c(C(=O)N3CCN(C)C4(CCNCC4)C3)oc2c1	-0.53
COc1ccc2c(c1)c(CC(=O)Nc1c(C)cccc1C)c(C)n2C(=O)c1ccc(Cl)cc1	-3.2
Cc1ccc(C(=O)c2oc3ccccc3c2NC(=O)c2cc(=O)c3ccccc3o2)cc1	-1.4
COc1cc(C(=O)N(Cc2ccc(F)cc2)Cc2ccco2)cc(OC)c1OC	-1.1
CCCC1CN(c2ncc(F)cn2)CC1NS(C)(=O)=O (stereo not drawn)	0.17
Cc1ccc(S(=O)(=O)Nc2cc3c(C(=O)OCc4ccccc4)c(C)oc3c3ccccc23)c(C)c1	-0.37
COc1cccc(-c2nn(C)c3sc(C(=O)NCc4cc(OC)ccc4OC)cc23)c1	1.5
Cc1cccc(N2CCN(c3nc4ccccc4c4nnc(C)n34)CC2)c1C	0.53
COCCn1c(CO)nnc1C1CC(NC(=O)c2ccccc2Cl)C1 (stereo not drawn)	0.69
CCOc1ccc2nc(NC(=O)c3nc(SCc4ccccc4F)ncc3Cl)sc2c1	0.73
CCCCN(CC)CCNC(=O)c1cn(CCOC)c(=O)c2c1c1ccccc1n2C	-0.68
CCN(CC)S(=O)(=O)c1ccc2oc(C(=O)N(C)Cc3ccccc3)c(C)c2c1	-1.4
CCCCCCN1CC2(CCN(C(=O)c3ccnn3C)CC2)OC1=O	-0.07
Cc1ccc(C)c(Cn2c(CCCNC(=O)C3CCCCC3)nc3ccccc32)c1	-0.34
COc1cccc(C)c1C(=O)NCC1CC(=O)N(c2ccccc2)C1 (stereo not drawn)	0.28
Cc1cccc(OC2CN(C(=O)NC3CCCN(C(=O)c4ccco4)C3)C2)c1 (stereo not drawn)	-0.18
CCc1ccc(-n2c(=O)c3sc4ccccc4c3n(CC(=O)NC3CCCCC3)c2=O)cc1	-0.57
Cc1ccc(-c2nc3ccccn3c2Nc2ccc3c(c2)OCCO3)s1	-0.33
Cc1c(C(=O)OCCOc2ccccc2)[nH]c2c1C(=O)CC(c1ccccc1Cl)C2 (stereo not drawn)	0.93
CCc1ccccc1NC(=O)CSc1nc2c(oc3ccccc32)c(=O)n1C	-2.6

New compounds follow
SMILES	fixLJ activator
Cc1ccc(C(C)CCN(C)Cc2nc(-c3ccccn3)no2)o1 (stereo not drawn)	1.3
CCc1ccc(-n2nc(CO)c(C(=O)NCCCCc3ccccc3)n2)cc1	-0.77
CO[C@H]1C[C@H](O[C@H]2[C@H](C)[C@@H](OC3O[C@H](C)C[C@H](N(C)C)[C@H]3OC(C)=O)[C@@H](C)C[C@]3(CO3)C(=O)[C@H](C)[C@@H](OC(C)=O)[C@@H](C)[C@@H](C)OC(=O)[C@@H]2C)O[C@@H](C)[C@@H]1OC(C)=O (stereo partly drawn)	-0.83
Cc1c(-c2ccccc2)noc1NC(=O)C1CCCN(c2ccccn2)C1 (stereo not drawn)	-0.91
CCC(=O)N1CCc2[nH]cnc2C12CCN(C(=O)c1ccc(C)c(O)c1)CC2	-0.73
Cc1ccc(-n2nc(CO)c(C(=O)NCCCCc3ccccc3)n2)cc1C	1.9
Cc1cc(Cl)ccc1C(=O)N1CCC2(CC1)OCC[C@@](C)(O)C2O (stereo partly drawn)	-1.6
CN(CC(=O)Nc1ccccc1F)S(=O)(=O)c1ccc2c(c1)c(=O)n(C)c(=O)n2C	0
Cc1cc(C(=O)N2CCCC2)ccc1NC(=O)NCCc1cscn1	-1.5

For convenience, part of the list above.
SMILES	fixLJ activator
CCCc1nnc(NC(=O)c2cc(=O)c3ccccc3o2)s1	-0.57
Cc1noc(C)c1S(=O)(=O)N(CC(=O)NCCc1ccc(Cl)cc1)c1ccc(C(C)C)cc1	-1.3
COc1ccc(-n2c(CC3C(=O)N(C)c4ccc(C)cc43)nc3ccccc3c2=O)cc1 (stereo not drawn)	0.4
CN1CCc2[nH]cnc2C12CCN(C(=O)c1ccc3nccnc3c1)CC2	-0.25
CCOC(=O)C1=C(CN2CCN(c3ccccc3OC)CC2)NC(=O)NC1c1ccccc1 (stereo not drawn)	-1.3
Cc1cccc(Nc2ccccc2C(=O)O)c1C	-1.4&-1.7
CN1CC(=O)N(CC(=O)NCc2cc(COc3ccccc3)cs2)C1=O	-0.58
CCOC(=O)c1cnc2ccc(OC)cc2c1NCCc1ccc(OC)c(OC)c1	-1.9
CS(=O)(=O)N1CCc2[nH]cnc2C12CCN(C(=O)C1CC1)CC2	-0.39
CCCCN(Cc1ccco1)C(=O)NC(C)c1nc(C)no1 (stereo not drawn)	-2.2
COCCn1ccnc1C1CCCN(C(=O)CCCn2ccnc2)C1 (stereo not drawn)	-2.6
COc1ccc(NC(=O)Cn2c(=O)n(CCCC(=O)NCCc3ccc(C)cc3)c(=O)c3ccccc32)cc1Cl	-0.7
Cc1ccc2c(c1)OC(C)(C)CC2NC(=O)c1cc(C)n2nc(C)cc2n1 (stereo not drawn)	-0.38
NC[C@H]1O[C@H](O[C@H]2[C@H](O)[C@@H](O[C@H]3O[C@H](CO)[C@@H](O)[C@H](N)[C@H]3O)[C@H](N)C[C@@H]2N)[C@H](N)[C@@H](O)[C@@H]1O	-2.6
